# Source: PubChem (Broad Institute)
# CFTR F508del cor = CFTR F508del correction in bronchial cells; 350,000 tested, 0.36% active; activity (quench increase), % at 7.58 µM; CFBE cells, YFP halide quenching; stimulated with forskolin plus potentiator P3; % fluorescence drop versus neutral controls;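 active = mean added fluorescence quench of at least 8% versus neutral control, with both replicates also reaching 8%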;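 note: cells transiently co-express mutant CFTR-F508del with the halide-sensitive YFP; corrector assay measuring rescue of mutant channel to the surface after 24 h compound exposure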
# XiGFP reactiv = reactivates the inactive X chromosome in mouse fibroblasts; XiGFP mouse fibroblasts, % GFP-positive cells imaging, 3 d; cells co-treated with 5-aza-dC sensitizer; scaled so ellipticine positive control = 100%; 360,000 tested, 0.055% active; activation, % at 7.58 µM;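 active = mean normalized replicate activation at least 10% and every replicate at or above 10%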;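 note: 0% = median of on-plate neutral control wells and 100% = ellipticine 6 µM median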
#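 assay system = SV40-immortalized XiGFP fibroblast cells, line 68-5-11 | buffer or medium = DMEM plus 5-aza-dC sensitizer | doses = single-point pinned compound dosing | times = 3-day compound exposure, then 15 min fixation at room temperature | benchmarks = positive control ellipticine, 6 µM final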
# esBAF inh = SWI/SNF esBAF complex inhibition. mouse ES cells, Bmi1-luciferase knock-in reporter, 24 h; 100% = twice the neutral-well signal. reporter increase, % at 12.5 µM. 350,000 tested, 2% active. AID 602393; in the data active = activation above about 40%;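 note: 0% = median of the plate's neutral control wells and 100% = double that signal; a rise in the Bmi1 reporter signal indicates esBAF inhibition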
# ERAP1 inh = blocks human ERAP1 aminopeptidase activity | Q9NZ08 | recombinant ERAP1, Leu-AMC fluorescence, 60 min | inhibition, % at 10.7 µM | 340,000 tested, 0.15% active | AID 652197;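 active = mean replicate inhibition of at least 30%, or all replicates individually reaching that 30% level; inactive = mean below 30% and not every replicate reaching it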;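 note: 0% = neutral control wells and 100% = L-leucinethiol positive control wells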
# RAD52 anneal inh = inhibitors of human RAD52 DNA annealing. AID 651710. inhibition, % at 18.7 µM. 360,000 tested, 0.46% active. recombinant RAD52 DNA annealing, FRET fluorescence. P43351;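 active = every replicate showing at least 50% inhibition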
# Target sequence (P43351 whole entry, looked up): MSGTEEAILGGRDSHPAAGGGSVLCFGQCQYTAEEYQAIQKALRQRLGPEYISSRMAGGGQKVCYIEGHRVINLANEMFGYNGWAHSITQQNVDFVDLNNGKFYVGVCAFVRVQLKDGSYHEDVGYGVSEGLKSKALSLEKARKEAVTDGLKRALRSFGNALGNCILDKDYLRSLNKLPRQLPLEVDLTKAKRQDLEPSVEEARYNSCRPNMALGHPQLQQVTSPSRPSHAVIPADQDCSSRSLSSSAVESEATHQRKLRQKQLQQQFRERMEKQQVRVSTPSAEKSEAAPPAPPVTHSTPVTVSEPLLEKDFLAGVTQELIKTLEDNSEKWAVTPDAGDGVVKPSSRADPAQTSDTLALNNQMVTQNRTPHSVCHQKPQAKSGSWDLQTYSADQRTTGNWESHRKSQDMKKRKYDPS
# RAD54 inh = RAD54 (human) branch migration inhibition. Q92698. RAD54 Holliday junction branch migration, FAM/BHQ fluorescence. inhibition, % at 10.4 µM. 360,000 tested, 0.14% active. AID 602329;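 active = mean normalized replicate activity at least 40 and at least half of replicates scoring 40 or more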;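 note: 0% = median of neutral control wells and 100% = median of positive control wells; inhibitors cause a drop in the FAM fluorescence signal; in these data hits start at about 50%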
# INS-1E GSIS act = GLuc luminescence reporter in INS-1E cells, primary screen for activators of glucose-dependent secretion of insulin; AID 743287; INS-1E GLuc reporter insulin secretion, 2-3 h; activation, % at 16.6 µM; 370,000 tested, 0.61% active;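 active = lowest replicate activation of at least 40%, so every replicate reaches that level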;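 note: 0% = median of neutral control wells and 100% = median of IBMX positive control wells; some compounds called inactive have numbers as strong as hits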
# * = called active by the depositor; . = not tested or not shown; & = joins results of further samples. Not all compounds are listed; count on the stated rates, not on these rows.
# Under each structure: XiGFP reactiv	INS-1E GSIS act	RAD54 inh	RAD52 anneal inh	CFTR F508del cor	esBAF inh	ERAP1 inh
> C=C(C)c1cccc(C(C)(C)NC(=O)NCc2ccc(OC)c(OC)c2)c1
    .	.	.	.	.	-7	.
> COc1ccc(/C=N/Nc2ncnc3sc4c(c23)CCCC4)cc1O
    0.5	-1	.	.	.	.	.
> Cc1nn(C)c(C(=O)N/N=C/c2ccc(C(F)(F)F)cc2)c1[N+](=O)[O-]
    0.0	-7	-6	.	.	.	.
> CCOC(=O)C1=C(COCCN)NC(C)=C(C(=O)OC)C1c1ccccc1Cl (stereo unspecified)
    0.1&-0.1&-0.1	8	11&5&3	27&18&-81	2.4&-3.1&3.8	3&0&4	1&4&-1
> Cc1ccc(-n2c(SCC(N)=O)nnc2-c2ccco2)cc1
    0.0	1	5	-5	3.1	-11	0
> C[C@@H]1CCCCO[C@H](CN(C)S(=O)(=O)c2cccs2)[C@@H](C)CN([C@@H](C)CO)C(=O)c2cc(NS(C)(=O)=O)ccc2O1
    -0.1	0	-5	-6	0.5	-5	-6
> C[C@@H]1CN([C@H](C)CO)C(=O)c2cc(NS(C)(=O)=O)ccc2O[C@@H](C)CCCCO[C@H]1CN(C)S(=O)(=O)c1cccs1
    -0.1	-10	-10	20	3.2	0	-3
> CCOC(=O)N1CCN(C(=O)c2ccc3c(c2)NC(=O)/C(=C\c2cccc(C)c2)S3)CC1
    0.1	-3	6	-103	-2.5	-2	1
> C[C@H]1CN([C@@H](C)CO)C(=O)c2cccc(NS(C)(=O)=O)c2O[C@@H]1CN(C)C(=O)Nc1ccc2c(c1)OCO2
    0.1	0	1	7	-1.3	0	1
> Cc1ccc(C(=O)N/N=C\c2ccc(-c3ccc(Cl)c(Cl)c3)o2)cn1
    0.0	19	5	-12	-33	.	0
> CCC(C)(C)n1nnnc1CN1CCN(c2nc3cc(OC)ccc3cc2C#N)CC1
    .	.	-6	.	.	-1	.
> CCOC(=O)c1cnc(-n2nc(C)cc2C)nc1NC1CCCCC1
    .	.	0	.	.	-41	.
> CCC(C)(C)n1nnnc1C(c1cccs1)N1CCc2ccccc21 (stereo unspecified)
    .	10	.	-9	-3.2	.	0
> COc1ccc2nc(N(CCN(C)C)C(=O)c3ccc4c(c3)OCCO4)sc2c1
    0.0	4	5	16	2.6	14	0
> O=C(Nc1ccccc1)N1CCCCN2[C@@H](CO)[C@H](c3ccc(C#CC4CC4)cc3)[C@@H]2C1
    0.0	-21	-6	-12	2.2	.	1
> CCN(CC(=O)NCc1ccccn1)S(=O)(=O)c1ccc(Cl)cc1
    .	9	3	.	.	-3	.
> O=C(N/N=C/c1ccoc1)c1cc(O)cc(O)c1
    0.0	0	-14	-4	1.9	.	-2
> O=C(C[C@H]1C[C@@H]2c3cc(NC(=O)NC4CCCCC4)ccc3O[C@@H]2[C@H](CO)O1)NCc1ccccc1
    0.2	-3	3	-6	-0.6	3	-1
> O=C(COC(=O)CNC(=O)c1cccs1)Nc1ccc(C(F)(F)F)cc1[N+](=O)[O-]
    0.0	-1	-10	-7	0.8	-4	1
> CCNC(=O)Nc1ccc2c(c1)C(=O)N(C)[C@H]1CC[C@@H](CC(=O)N[C@@H](C)c3ccccc3)O[C@@H]1CO2
    0.0	-1	-2	7	.	-1	-1
> CC1=C(C(=O)Nc2cccnc2)C(c2ccccn2)n2nnnc2N1 (stereo unspecified)
    .	.	-7	.	.	-15	.
> COc1cccc(OC)c1C1=NC(C)(C)CO1
    2.2	4	0	-3	2.6	.	-2
> O=C(/C=C/c1cccc([N+](=O)[O-])c1)N1CCOCC1
    -0.4	-2	.	.	.	.	.
> CCOC(=O)C1=C(C)NC(C)=C(C(=O)OC)C1c1cccc(Cl)c1Cl (stereo unspecified)
    0.3	14	2	3	-1.4	-5	16
> Cc1ccc(C)c(OCc2cc(C(=O)NC3CCOC(C)(C)C3)no2)c1 (stereo unspecified)
    0.5	12	1	-10	1.5	51*	2
> O=C(CN1C(=O)COc2ccc(S(=O)(=O)N3CCCC3)cc21)NCc1ccccn1
    0.1	-8	.	-8	1.0	.	-2
> O=C(Cn1cnc2sc3c(c2c1=O)CCCC3)NCC(=O)Nc1ccccc1F
    0.0	18	2	-9	0.0	-7	-2
> CC(=O)c1cc(-c2ccccc2)n(CC(=O)N2CCC(N3CCCCC3)CC2)c1C
    .	-2	.	.	.	.	.
> O=[N+]([O-])c1c(NCCO)cc(N2CCCCCC2)c2nonc12
    -0.2	.	-2	-27	.	6	4
> CCN(CC(=O)NCc1ccc(Cl)cc1)Cc1cc(=O)n2ccsc2n1
    0.1	-7	.	-15	4.5	.	-5
> C[C@@H]1CCCCO[C@H](CN(C)C(=O)c2ccncc2)[C@@H](C)CN([C@@H](C)CO)C(=O)c2cc(NC(=O)Cc3ccccc3)ccc2O1
    -0.1	22	-25	-7	-0.8	2	-5
> CCOc1ccccc1NS(=O)(=O)c1ccc2[nH]c(=O)[nH]c2c1
    0.0	9	6	-9	1.1	-4	-3
> COCCNC(=O)C1(S(=O)(=O)c2ccccc2)CC=CC1
    0.2	3	3	13	-0.8	9	3
> O=C(N(c1ccccn1)c1ccccn1)C12CC3CC(CC(C3)C1)C2
    0.9	3	.	-10	1.0	.	0
> c1ccc(-c2ccc(-c3ccccn3)s2)nc1
    0.0	.	0	-15	-0.6	12	-2
> COc1ccc(S(=O)(=O)c2c(O)c3ccc(C(=O)Nc4ccccc4)cc3[nH]c2=O)cc1
    0.0	2	-25	-17	1.1	-3	-2
> COc1cccc(NC(=O)c2ccc3c(O)c(S(=O)(=O)c4ccccc4)c(=O)[nH]c3c2)c1
    0.0	2	-45	-12	-2.2	2	0
> Cc1ccc(-n2c(SCC(=O)N(C)C)nnc2-c2ccco2)cc1
    0.0	1	-7	-9	1.2	-1	0
> Cc1c(C(=O)O)sc2nc(/C=C/c3cccc(F)c3)[nH]c(=O)c12
    0.2	-8	-2	-13	-0.9	7	-72
> COc1ccc(NC(=O)c2ccc(Br)o2)cc1
    0.0	7	-3	-66	0.0	.	1
> Cc1ccc(C(=O)Nc2nnc(-c3ccncc3)o2)cc1
    -0.2	8	.	-20	0.4	.	-1
> COc1ccc(-c2nnc(SCC(=O)Nc3cc(C)on3)o2)cc1
    0.1	7	.	5	-1.8	.	1
> C[C@H]1CN([C@@H](C)CO)C(=O)c2cccc(NC(=O)c3ccncc3)c2O[C@@H]1CN(C)S(=O)(=O)c1cccs1
    0.1	7	-10	1	0.2	4	4
> C=CCn1c(CCNC(=O)c2ccccc2F)nnc1SCC(=O)Nc1nc(C)cs1
    .	.	4	.	.	-9	.
> N#CC(c1cccc(C(F)(F)F)c1)(c1ncc(C(F)(F)F)cc1Cl)N1CCOCC1 (stereo unspecified)
    .	-5	10	-8	-1.6	-4	5
> COc1ccc(S(=O)(=O)NCC2CCCN(C(=O)c3ccccc3)C2)cc1 (stereo unspecified)
    0.4	12	.	-16	-4.4	.	-2
> COC(=O)c1cc(C(=O)Nc2cccc(C)n2)cc([N+](=O)[O-])c1
    .	.	0	.	.	-6	.
> CCN1CCCC1CNS(=O)(=O)c1c(C)cc(C)cc1C (stereo unspecified)
    0.1	-9	1	-16	2.0	0	0
> Cc1cc(C)c(NC(=O)C2CCCN2CCC(C)C)c(C)c1 (stereo unspecified)
    .	.	-4	.	.	.	.
> O=C(CCCn1c(=O)oc2ccccc21)N1CCc2ccccc2C1
    .	.	7	.	.	4	.
> O=C(O)COCC(=O)Nc1ccc2c(c1)ncn2CCc1ccccc1
    0.0	8	4	-11	-2.6	-6	-2
> COc1ccccc1N/N=C/c1c(CO)cnc(C)c1O
    .	-17	-7	.	.	2	.
> CCn1c(CN2CCOCC2)nnc1SCC(=O)Nc1ccc(C)cc1
    0.3	5	8	-5	-1.3	-10	0
> Cc1ccc(CNC(=O)Cn2cnc(S(=O)(=O)N3CCCCC3)c2)o1
    0.0	.	3	4	-1.2	4	2
> COc1ccc(-c2nc(C#N)c(NCCCN(C)C)o2)cc1OC
    .	19	31	.	.	6	.
> CCOC(=O)c1cc(C(=O)OCC)c2cccc(C)n2c1=O
    .	.	-3	.	.	-4	.
> O=C1NC[C@@H](c2ccccc2)OC(=O)[C@H](Cc2ccc(F)cc2)CC/C=C/C[C@H]1CC(=O)N(CCO)Cc1ccccc1
    0.0	-7	1	-8	-3.1	4	.
> C=CCNC(=O)C1(S(=O)(=O)c2ccccc2)CC=CC1
    0.3	4	-12	-13	0.3	-4	-3
> O=S(=O)(Nc1cccc(C(F)(F)F)c1)c1cnc[nH]1
    .	.	-1	.	.	7	.
> CC(C)CCn1nnnc1CN1CCN(c2ccccc2)CC1
    0.1	-3	-8	-13	1.6	-5	0

# Later entries
# Under each structure: XiGFP reactiv	INS-1E GSIS act	RAD54 inh	RAD52 anneal inh	CFTR F508del cor	esBAF inh	ERAP1 inh
> COc1cccc(-c2nc(-c3ccc(NC(=O)c4cccs4)cc3)no2)c1
    .	.	-6	.	.	62*	.
> NC(=O)c1ccc(-c2c(-c3ccccc3)sc3ccccc23)cc1
    0.0	-16	-17	-8	2.6	-1	-2
> COc1ccc(NC(=O)N(C)C[C@@H]2Oc3ccc(NS(=O)(=O)c4cn(C)cn4)cc3C(=O)N([C@H](C)CO)C[C@H]2C)cc1
    1.1	-1	11	-2	1.3	-6	2
> COc1ccc(NC(=O)Nc2ccc3c(c2)C(=O)N([C@@H](C)CO)C[C@H](C)[C@H](CN(C)C(=O)CCC(F)(F)F)OCCCC[C@@H](C)O3)cc1
    -0.3	-10	2	.	-0.1	-3	.
> COC(=O)[C@H](C(C)C)N(Cc1ccccc1)S(=O)(=O)CCN1CCN(c2ccccc2)CC1
    0.2	-12	-7	-9	1.4	-2	-1
> O=C(N/N=C/c1ccncc1)c1ccc(NS(=O)(=O)c2cccs2)cc1
    0.0	4	.	-6	.	.	5
> COC(=O)C1=NN(c2ccc(C)cc2)C2C(=O)N(c3ccccc3OC)C(=O)C12 (stereo unspecified)
    0.5	6	-21	2	-3.4	-3	5
> COc1cc2c(cc1OC)CN(C(=O)Cn1ccccc1=O)CC2
    .	.	1	.	.	-4	.
> C[C@H]1CN([C@@H](C)CO)C(=O)c2cccc(NC(=O)c3ccncc3)c2O[C@@H]1CN(C)Cc1ccc(-c2ccccc2)cc1
    -0.1	-36	3	-24	-5.8	0	8
> CC1=NN(c2ccccc2C)C(=O)C1
    0.0	.	-7	3	3.7	-4	-1
> O=C(NN=Cc1ccccc1OC(F)F)c1ccc(NS(=O)(=O)c2cccs2)cc1
    -0.1	12	-3	-2	1.8	13	-4
> O=C1NC[C@@H](c2ccccc2)OC(=O)[C@@H](Cc2ccc(F)cc2)CC/C=C/C[C@@H]1CC(=O)N(CCO)Cc1ccccc1
    -0.6	-33	-9	-6	2.3	-5	0
> C=CCn1c(CCNC(=O)c2ccccc2F)nnc1SCC(=O)Nc1nc2ccccc2s1
    .	-14	-3	.	.	3	.
> O=C(O)c1ccc(NS(=O)(=O)c2cccc(C(=O)Nc3ccc(Br)cc3)c2)cc1
    0.1	0	-5	-2	0.5	-4	-7
> CN(C)CCCN(C(=O)c1ccc2c(c1)OCCO2)c1nc2ccc(Cl)cc2s1
    0.2	-21	3	33	-1.3	0	-4
> O=C1Nc2cc(C(=O)N3CCN(c4ccccn4)CC3)ccc2S/C1=C\c1ccccc1
    0.0	-7	8	-51	4.0	-8	-3
> CNC[C@@H]1Oc2c(NS(=O)(=O)c3cccs3)cccc2C(=O)N([C@@H](C)CO)C[C@@H]1C
    0.1	8	-9	-19	5.8	1	-2
> CC(OC(=O)CCNS(=O)(=O)c1cccs1)C(=O)Nc1ccc(S(N)(=O)=O)cc1 (stereo unspecified)
    0.1	-3	-6	-9	2.9	-4	0
> COc1ccc(/C=C2/Sc3ccc(C(=O)N4CCc5ccccc5C4)cc3NC2=O)cc1
    -0.2	-2	.	-78	.	.	-4
> Cc1ccccc1CNC(=O)Cn1cnc(S(=O)(=O)N2CCCC2)c1
    0.0	4	-12	-10	-0.8	-3	2
